NPR1 antag: antagonists of human natriuretic peptide receptor Npr1 | P16066 | HEK293 hNpr1 GloSensor cGMP, ANP-stimulated luminescence | Potency, µM (highest dose often 46.3 µM), for the others: at the top dose activity change, negative = inhibition, hits mostly inhibitors | hit rate 1.6% among 76,000 | AID 1347048; active = well fitted inhibition curve with a large enough effect; inconclusive = small, poorly fitted or top-dose-only effect; inactive = no such curve, though single readings can be large or run the other way;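 note: nearly all actives have a fitted effect of over 60% in size; nearly all hits also lower the signal before the agonist is added; a reference antagonist and vehicle were the controls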
Target sequence (P16066 whole entry, looked up): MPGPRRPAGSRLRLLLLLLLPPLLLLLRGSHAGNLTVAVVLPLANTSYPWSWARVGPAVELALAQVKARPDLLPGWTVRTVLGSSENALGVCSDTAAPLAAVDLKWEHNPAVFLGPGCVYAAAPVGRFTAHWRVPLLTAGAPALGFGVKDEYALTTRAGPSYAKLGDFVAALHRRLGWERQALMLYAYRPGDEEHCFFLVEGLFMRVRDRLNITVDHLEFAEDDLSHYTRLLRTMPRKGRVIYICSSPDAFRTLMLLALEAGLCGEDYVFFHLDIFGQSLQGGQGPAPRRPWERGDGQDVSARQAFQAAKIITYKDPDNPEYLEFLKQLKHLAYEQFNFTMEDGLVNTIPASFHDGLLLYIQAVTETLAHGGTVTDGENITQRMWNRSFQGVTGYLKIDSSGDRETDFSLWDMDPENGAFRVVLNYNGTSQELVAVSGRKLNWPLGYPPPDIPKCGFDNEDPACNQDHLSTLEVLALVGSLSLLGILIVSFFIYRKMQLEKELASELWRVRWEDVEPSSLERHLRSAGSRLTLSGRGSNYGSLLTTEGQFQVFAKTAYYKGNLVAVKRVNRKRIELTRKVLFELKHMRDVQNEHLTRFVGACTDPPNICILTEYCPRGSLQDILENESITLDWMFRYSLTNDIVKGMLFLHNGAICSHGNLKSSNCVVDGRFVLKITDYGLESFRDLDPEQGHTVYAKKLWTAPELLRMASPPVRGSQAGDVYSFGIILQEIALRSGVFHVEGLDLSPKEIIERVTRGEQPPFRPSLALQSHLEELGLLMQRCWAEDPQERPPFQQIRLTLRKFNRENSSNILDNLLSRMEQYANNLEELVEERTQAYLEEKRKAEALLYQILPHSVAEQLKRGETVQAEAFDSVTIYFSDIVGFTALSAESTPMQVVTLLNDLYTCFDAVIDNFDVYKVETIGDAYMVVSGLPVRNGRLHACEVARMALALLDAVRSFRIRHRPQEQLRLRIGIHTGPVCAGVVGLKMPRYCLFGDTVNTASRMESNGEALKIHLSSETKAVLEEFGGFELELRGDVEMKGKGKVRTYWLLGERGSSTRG
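Compound pre-incubated 30 min at room temperature on GloSensor-loaded HEK293 cells stably carrying hNpr1 and the pGS-40F cGMP biosensor. Stimulation uses hNppA at 0.1 nM final; luminescence is taken at baseline and 20 min post-agonist.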
* hit, by the source's call; u = inconclusive; [ ] = another dose, or the depositor's remark. % is set by controls: 0 for no effect and ±100 for the full control effect; potency is the fitted concentration of half-maximal effect.

compound	NPR1 antag
COC(=O)c1ccc2nc(C[C@@H]3C[C@@H](C(C)C)[C@H](CNC(=O)CCC(=O)O)C=C3C)[nH]c2c1	-2%
O=C(Nc1ccc2c(c1)OCCO2)C1CN(S(=O)(=O)C2CC2)CC12CCCCC2 (centres undefined)	u
O=C(CC1COCCN1C(=O)c1cc(F)ccc1F)NCc1cccnc1 (centres undefined)	3%
c1cc(-c2noc([C@@H]3Cc4nc[nH]c4CN3CC3CCCCC3)n2)ccn1	-6%[70.6 µM]
CC(C)(C)C1CCC2(CC1)NC(=O)N(CC(=O)N1CCN(c3ccc(F)cc3)CC1)C2=O (centres undefined)	-5%
COc1ccc(OC2CCN(C(C)=O)CC2)c(C(=O)N(C)Cc2ccc3nccnc3c2)c1	-4%
COc1cccc(C(=O)N2CCC(N3C[C@H](O)C[C@H]3C(=O)Nc3ccccc3OC)CC2)c1	-2%
O=C1NC2(CCN(C(=O)c3ccc(F)cc3)C2)Oc2ccccc21 (centres undefined)	0%[70.6 µM]
CC(C)(C(=O)N1CCN(Cc2ccccc2)CC(O)C1)c1ccccc1 (centres undefined)	6%
Cc1nc(C2CCCN(C(=O)COC(C)C)C2)cc(N2CCOCC2)n1 (centres undefined)	5%
COc1ncccc1-c1cc(-c2cccnc2)c2cncn2c1	1%[70.6 µM]
O=C([C@@H]1C[C@H](F)CN1S(=O)(=O)Cc1ccccc1Cl)N1CCc2ccccc2C1	-3%
COC[C@@H]1CN(Cc2cccnc2)C[C@H]1c1nc(C)no1	-2%
COc1ccc(S(=O)(=O)Nc2ccc(C)n(CC(=O)NC(C)C)c2=O)cc1	-1%
COC[C@H]1C[C@@H](NCc2cccc(C(F)(F)F)c2)[C@H](O)[C@@H]1O	5%[70.6 µM]
Cc1cccc(NC(=O)N2CCC(CCN)CC2)c1	-1%
O=C(Nc1ccc(OC(F)(F)F)cc1)N1CCOC[C@H](Oc2ccccc2)C1	u
O=C(Cn1nc2n(c1=O)CCCC2)NCCc1ccc(Cl)cc1	0%
CC(C)c1ccc(OCc2nc3c(n2Cc2ccccc2)C(=O)N(CC2CC2)CCN3)cc1	3%
O=C(CCn1ccn2nc3c(c2c1=O)CCCC3)Nc1ccccc1F	0%
CCS(=O)(=O)N(C1CC1)C1CCOC2(CCN(C(=O)NCCc3ccccc3)CC2)C1 (centres undefined)	4%
Cc1cccc(Cn2c(-c3ccc(Cl)cc3)nc(C)c(CCO)c2=O)c1	4%
Cc1ccc(OCC(=O)N2CC(c3noc(COc4ccccc4)n3)C2)cc1	-6%
COc1cc(SC)ccc1C(=O)N[C@H]1CCN2C(=O)N(c3ccc(OC(F)(F)F)cc3)C(=O)[C@@H]2C1	u
COCCN1C(=O)c2ccccc2C(C(=O)NCc2ccco2)C12CCCC2 (centres undefined)	1%

Filtered by structure: the entries above with a Cl atom (3)
compound	NPR1 antag
O=C([C@@H]1C[C@H](F)CN1S(=O)(=O)Cc1ccccc1Cl)N1CCc2ccccc2C1	-3%
O=C(Cn1nc2n(c1=O)CCCC2)NCCc1ccc(Cl)cc1	0%
Cc1cccc(Cn2c(-c3ccc(Cl)cc3)nc(C)c(CCO)c2=O)c1	4%

(list continues)
compound	NPR1 antag
O=C(c1ccno1)N1C[C@@H]2OCC(=O)N(CC3CC3)[C@@H]2C1	2%[70.6 µM]
COc1ccc(CC(=O)NC[C@@H]2CC[C@H]3C[C@@H]2C3(C)C)cc1	2%[70.6 µM]
CS(=O)(=O)N1CCC(C2CCN(C(=O)Cc3ccc(F)cc3)C2)CC1 (centres undefined)	9%
Cc1nc(-c2cnccn2)n(CC(=O)Nc2ccc(F)cc2)c(=O)c1C	-1%
Clc1ccc(CN2CCC[C@H]2c2nc(-c3ccc(N4CCOCC4)nc3)no2)cc1	u
COc1ccc(OC)c(S(=O)(=O)N2CCOCCNC(=O)[C@@H]3CCC[C@@H]32)c1	-4%
O=C(N[C@H]1CCN2C(=O)c3ccccc3NC(=O)[C@@H]2C1)C1CCCC1	4%[70.6 µM]
COCCOCC(=O)N1CCC2(CC1)c1[nH]c3ccc(OC)cc3c1CCN2C	9%
c1ccc(-c2noc(-c3cncnc3NCCc3cccs3)n2)cc1	-19%
CN1[C@@H](CCC(=O)Nc2ccccc2)CNC(=O)[C@@H]2[C@H]1CCN2Cc1csnn1	3%[70.6 µM]
CCOc1ccc2c(n1)CCN(C(=O)c1ccc(OC)cc1OC)C2	-23%
O=C1[C@@H]2C[C@@H](O)CN2C2(CN(CC3CC3)C2)C(=O)N1Cc1ccccc1	-2%[70.6 µM]
O=C(NCCn1cccc1-c1nc(-c2ccccc2)no1)c1cccc(Cl)c1	-12%
COC[C@H]1C[C@@H](NC(=O)c2ccc(Cl)cc2)[C@H](O)[C@@H]1O	0%[70.6 µM]
Cc1ccsc1CN1CCC(Oc2cc(Cl)ccc2C(=O)N2CCCCC2)CC1	1%
COc1ccc2nc([C@H]3CCN(CC(C)C)C3)[nH]c2c1	-14%[70.6 µM]
CC(C)CCN(C1CCOCC1)C1CCN(Cc2ccc[nH]2)CC1	4%
Cc1c(Cl)cccc1NC(=O)N1C[C@@H](F)C[C@H]1C(=O)N1CCCCC1	-17%
COCCN1CC[C@H]2CN(C(=O)Cc3ccc(OC)cc3)CC[C@H]2CC1=O	-1%[70.6 µM]
Cc1ncsc1CN1CC(N(CC(C)C)C2CCOCC2)C1	5%
Cc1ccnc(NCCNC(=O)C2CCC(=O)N(CC3CCCCC3)C2)c1 (centres undefined)	2%
Cc1nnc2n1CCC(NC(=O)CCc1c[nH]c3ccccc13)CC2 (centres undefined)	-1%
CCc1ccc(N2CC(c3noc(Cc4ccccc4F)n3)CC2=O)cc1 (centres undefined)	0%
CCN(CC)Cc1cnc2c(C(=O)N3CCCCC3CCO)cnn2c1 (centres undefined)	1%
O=C(N[C@H]1CCN2C(=O)c3cc(/C=C/c4ccc(O)cc4)ccc3NC(=O)[C@H]12)c1cnccn1	3%

As entered above.
NPR1 antag with CC(C)(C)C1CCC2(CC1)NC(=O)N(CC(=O)N1CCN(c3ccc(F)cc3)CC1)C2=O (centres undefined) → -5%
NPR1 antag with COC(=O)c1ccc2nc(C[C@@H]3C[C@@H](C(C)C)[C@H](CNC(=O)CCC(=O)O)C=C3C)[nH]c2c1 → -2%
NPR1 antag with Cc1ncsc1CN1CC(N(CC(C)C)C2CCOCC2)C1 → 5%

Next part.
compound	NPR1 antag
CCCS(=O)(=O)N1CCC(CCOC)(NC(=O)NCC)CC1	-5%
CCN1CCN(C(=O)Cn2cccc(OC)c2=O)CC1(C)C	2%
COC(=O)C1=CN(CC(=O)Nc2c(C)cc(C)cc2C)S(=O)(=O)N=C1C	-16%
Cc1ccc(CN2CCCCCCNC(=O)[C@@H]3C[C@@H](C(=O)N4CCc5ccccc5C4)C[C@@H]32)o1	-16%
CS(=O)(=O)CC[C@H](NC(=O)C1=C[C@@H](NC(=O)Nc2ccc(F)cc2F)[C@@H](O)[C@H](O)C1)C(N)=O	-4%
NC(=O)C1CCN(C(=O)CC(c2ccccc2)c2cccc(Cl)c2)CC1 (centres undefined)	-12%
CCc1cccc(OCC(=O)c2ccc3c(c2)N(CCCC(=O)NCC2CC2)C(=O)CO3)c1	-8%
O=C(NC1CCN(c2cc(-c3ccc(Cl)cc3)[nH]n2)C1)c1ccc(Br)cc1 (centres undefined)	-20%
COCCN1C(=O)[C@H]2CN(Cc3ccccc3)C[C@H]2C1=O	3%
CCC(CC)n1c(=O)n(CCCc2cccnc2)c2cc(C(=O)O)cnc21	1%
O=C(NC1CCC1)C1CN(C(=O)Cn2nnc(-c3ccc(F)cc3)n2)CCO1 (centres undefined)	2%
O=C(NCc1ccc2c(c1)OCO2)c1ccc(N2CC3CC(C2)[C@H]2CCCC(=O)N2C3)nc1 (some centres undefined)	0%
Cn1nccc1C(=O)N1CCCC(c2nc(-c3ccccc3)no2)CCNC(=O)CC1 (centres undefined)	0%
O=C(c1ccc(F)c(Cl)c1)N1CCN(c2cc(-c3ccccc3)[nH]n2)CC1	-29%
COCCn1c(CO)nnc1C1CC(NC(=O)c2ccc3c(c2)CCO3)C1 (centres undefined)	-3%
COc1ccc(CN2CCc3oc(C)c(C(=O)N4CCCCCC4)c3C2)cc1	-14%
Cc1nn2c(c1-c1ccccc1C(C)C)N(C(=O)c1cccnc1)CCC2	2%[70.6 µM]
Cc1cccc(CN2CCCC3(CCN(Cc4cccc(O)c4)C3)C2)c1 (centres undefined)	-15%
COCC1CN(C2CCC2)CC12CCN(C(=O)COc1cccc(C)c1)CC2 (centres undefined)	-26%
CC(C)(C)c1cc(CNC(=O)CC2C(=O)NCCN2CC2CCCCC2)[nH]n1 (centres undefined)	-1%
O=C1CO[C@H](c2ccc(NC(=O)C3CCCCC3)cc2)[C@@H](CO)N1	2%[70.6 µM]
CCCS(=O)(=O)N1CCC(C(=O)N2CCCCCCNC(=O)CC2)CC1	-2%
O=C([C@H]1C[C@H](Oc2ccccc2)CN1C(=O)CC1CCCC1)N1CCOCC1	0%
COCCN1CCNc2cc(-c3cc(Cl)ccc3OC)ncc2C1	-2%[70.6 µM]
O=C(NC1CC1)[C@@H]1CN(Cc2cccnc2)C[C@H]1CO	2%
CC(=O)N1CC2(CCN(C(=O)c3ccc(C)s3)CC2)CC1C(=O)O (centres undefined)	0%
COC1CCC12CCN(C(=O)c1ccc(C)nc1)CC2 (centres undefined)	4%
CC1=C[C@@H](CNC(=O)C(C)(C)C)[C@H](C(C)C)C[C@H]1Cc1nnc(-c2ccccc2F)o1	-27%[70.6 µM]
O=C(Nc1cccc(-c2nnc3n2CCCC3)c1)c1cc(-c2ccccc2)n[nH]1	u
COc1ccc(NC(=O)N2Cc3[nH]cnc3C[C@H]2c2nc(-c3ccc(F)c(Cl)c3)no2)cc1	u
CN(Cc1ccc(C(F)(F)F)cc1)Cc1cccc(C(F)(F)F)c1	10%
COc1cccc(CC2(CO)CCCN(c3nnnn3-c3ccccc3)C2)c1 (centres undefined)	-7%
Cc1cnc(CC2CCN(C(=O)c3ccco3)CC2)n1CC1CC1	0%
Cc1nc2n(c1C(=O)NCCc1ccccc1)CCC(Nc1ccc(F)cc1)C2 (centres undefined)	2%[70.6 µM]
CCOC(=O)C1CCN(Cc2nnc3cc(-c4nc(-c5ccccc5)no4)ccn23)CC1	-7%
O=C(c1cscn1)N1CCC2(CCCN(CCC3CCCCC3)C2=O)C1 (centres undefined)	0%
CC(=O)Nc1cccc(-c2cn(C)c(=O)n3cc(COc4ccc(Cl)cc4)nc23)c1	-10%[70.6 µM]
Cc1sc2cc(C(=O)N3CCCCC3)[nH]c2c1CN1CCCCC1	-1%
COc1ccc(C2(C(=O)N3CCC4(CC3)N(C)C(=O)CS4=O)CC2)cc1 (centres undefined)	4%
Cc1ccc(S(=O)(=O)NC[C@H]2O[C@H](Cc3cc(-c4cccc(O)c4)on3)CC[C@@H]2O)cc1	u
CCc1ccccc1S(=O)(=O)N(C)CC1CCOCC1	-13%
O=C1N(CCc2ccccc2)CCOC12CCN([S+](=O)([O-])c1cccnc1)CC2	6%[70.6 µM]
C=CCc1ccc(C(=O)N2CCCC3(CCC(=O)N(C4CC4)C3)C2)cc1 (centres undefined)	4%
Cc1noc(-c2cccc(OC3CN(C(=O)C4CCOC4)C3)c2)n1 (centres undefined)	1%
O=C1NC2(CCN(Cc3ccccc3)CC2)Oc2ccccc21	2%[70.6 µM]
CNC(=O)C(C)N(C)C(=O)c1coc(CN2CCN(c3ccccc3F)CC2)n1 (centres undefined)	0%
CS(=O)(=O)N1CCCOCCNC(=O)[C@@H]2CCC[C@@H]21	2%
COCCOc1ccc2c(n1)CCN(C(=O)c1cccs1)C2	5%
O=S(=O)(c1cccs1)N1CC(c2nc(-c3ccncc3)no2)C1	4%
O=C(Cc1ccc(N(Cc2ccc(F)cc2)C(=O)c2ccco2)cc1)NCC1CC1	0%

More results.
compound	NPR1 antag
O=C1[C@H]2CN(Cc3ccncc3)C[C@H]2C(=O)N1Cc1ccc2c(c1)OCO2	-10%
Cn1cc(CNC(=O)C[C@@H]2C[C@H]3O[C@H](CNCc4ccccc4OC(F)(F)F)[C@@H](O)[C@H]3O2)cn1	-1%
CO[C@@H]1CO[C@H]2[C@@H]1OC[C@@H]2NC(=O)Nc1cccc(C(F)(F)F)c1	-2%[70.6 µM]
CCn1ccc(C(=O)N2CCC3(CC2)CC(N2CCN(c4ccccn4)CC2)CCO3)n1 (centres undefined)	0%
Cc1ccc(-c2nnc3ccc(N(C)CCN(C)C)nn23)nc1	1%[70.6 µM]
CCN1C(=O)Cc2cc(C(=O)NCc3ccc(F)cc3)ccc21	1%
O=C(NC1CCCCC1)N[C@H]1CCN2C(=O)c3cc(-c4ccsc4)ccc3NC(=O)[C@H]12	1%
COCCNC(=O)C(NC(=O)c1cccc(OC)c1)C1CCN(C(=O)COC)CC1 (centres undefined)	3%
O=C(NC[C@H]1OC[C@@H](NCc2ccccc2F)[C@@H]1O)c1cccs1	0%[70.6 µM]
O=C(Nc1cccc2ccccc12)O[C@@H]1CO[C@H]2[C@@H]1OC[C@@H]2NS(=O)(=O)c1ccc2ccccc2c1	0%

High-throughput results as filed in PubChem BioAssay.

An excerpt. The share of hits here may be higher or lower than overall.
